Bioassay records (PubChem)
Beta2AR agonist – activates human beta-2 adrenergic receptor causing internalization; P07550; Am2.2-beta2AR cells, FAP receptor internalization, flow cytometry; reference of the scale not given here; response, % (concentration not given with the values); 340,000 compounds, 0.43% hits; AID 504454;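 active = response above a set limit, near 3 SD of response in nonfluorescent compounds, cut at about 42% in these data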;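 note: stock transfer was 100 nL into about 11 µL; a reference agonist was the positive control; negative values mostly stem from fluorescent compounds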
FGF22 binding – FGF22 (human) thermal shift binding; Q9HCT0; recombinant FGF22 thermal shift, SYPRO orange fluorescence; percent of sucrose octasulfate shift, DMSO zero; calls only at 9.99 µM; 340,000 compounds, 1.5% hits;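 active = melting point raised past a set limit in the mean and every replicate; three in four hits are not shown here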
HNF4A DNA FP – change in binding of human HNF4 alpha to DNA; activity change, % at 10 µM; P41235; 360,000 compounds, 0.3% hits; HNF4a-FITC DNA binding, fluorescence polarization, 1 h; AID 1224865; in the data active = activity change above about 30%, passing the limit was not always enough;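 note: controls were the assay level and a saturating level of protein; the project sought stronger binding though the title names inhibitors; some compounds called inactive have numbers as strong as hits; positive values seem to mean higher polarization but the record does not say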
UCH37 DUB inh – blocks the human deubiquitinase UCH37; Q9Y5K5; purified proteasome/UCH37, Ub-AMC cleavage fluorescence; inhibition, % (no concentration beside the values); 330,000 compounds, 0.33% hits; AID 588478;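 active = mean of two replicates above 20%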;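 note: 0% = compound-free wells with enzyme and 100% = wells lacking proteasome; stock transfer was 100 nL into about 20 µL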
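Material: human UCH37 enzyme supplied as purified proteasome complex / Amount: 0.15 nM proteasome as dispensed / Buffer or medium: pH 7.4 Tris-HCl (50 mM) with ovalbumin, ATP-MgCl2, DTT / Times: preincubation 30 min, reaction 25 min, room temperature / Technique: AMC fluorescence from Ub-AMC cleavage, excitation 355 nm, emission 460 nm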
LANA-H2B inh – blocks KSHV LANA binding to histone H2A/H2B. inhibition, % (no concentration beside the values). Q9QR71. AID 2629. cell-free LANA-H2A/H2B peptide, fluorescence polarization. 320,000 compounds, 0.6% hits; in the data active = inhibition mostly above about 10%, no sharp cut-off; inactive = mostly below about 6.7%;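 note: stock transfer was 7.5 nL into about 10 µL; 0% = median of vehicle wells and 100% = median of positive control wells; one replicate is shown; the record names a cut of 25% in any replicate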
Target sequence (Q9QR71 whole entry, looked up): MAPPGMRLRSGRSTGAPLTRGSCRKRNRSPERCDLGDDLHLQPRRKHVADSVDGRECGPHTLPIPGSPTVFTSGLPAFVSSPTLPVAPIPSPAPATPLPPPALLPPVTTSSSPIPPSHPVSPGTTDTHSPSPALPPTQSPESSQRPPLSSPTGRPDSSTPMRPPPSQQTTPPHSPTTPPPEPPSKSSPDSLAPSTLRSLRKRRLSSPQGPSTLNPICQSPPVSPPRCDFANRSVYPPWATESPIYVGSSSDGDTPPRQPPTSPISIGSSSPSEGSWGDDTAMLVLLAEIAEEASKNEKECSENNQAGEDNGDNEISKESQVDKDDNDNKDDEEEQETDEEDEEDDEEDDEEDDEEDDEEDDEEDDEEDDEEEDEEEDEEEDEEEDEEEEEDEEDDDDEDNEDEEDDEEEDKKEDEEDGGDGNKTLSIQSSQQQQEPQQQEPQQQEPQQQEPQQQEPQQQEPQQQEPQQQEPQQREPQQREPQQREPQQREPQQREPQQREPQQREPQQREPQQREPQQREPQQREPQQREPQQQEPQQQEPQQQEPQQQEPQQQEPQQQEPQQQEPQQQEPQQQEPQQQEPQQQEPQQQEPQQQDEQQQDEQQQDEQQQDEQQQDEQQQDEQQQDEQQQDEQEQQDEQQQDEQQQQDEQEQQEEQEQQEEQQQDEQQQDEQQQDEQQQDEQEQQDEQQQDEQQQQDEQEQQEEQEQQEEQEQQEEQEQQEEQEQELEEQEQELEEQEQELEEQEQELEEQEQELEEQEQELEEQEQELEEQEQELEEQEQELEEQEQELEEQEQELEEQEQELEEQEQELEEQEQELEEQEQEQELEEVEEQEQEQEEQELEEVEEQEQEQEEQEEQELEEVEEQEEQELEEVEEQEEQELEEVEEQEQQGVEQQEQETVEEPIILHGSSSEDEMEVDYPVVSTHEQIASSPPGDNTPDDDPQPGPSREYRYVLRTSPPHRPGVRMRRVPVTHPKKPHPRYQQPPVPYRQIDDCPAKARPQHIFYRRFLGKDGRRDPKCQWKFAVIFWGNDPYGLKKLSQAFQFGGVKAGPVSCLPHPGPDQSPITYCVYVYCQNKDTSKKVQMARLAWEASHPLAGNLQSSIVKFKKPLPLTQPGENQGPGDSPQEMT
E coli growth – inhibitors of Escherichia coli growth; OD600, 23 h; active compounds read low; 330,000 compounds, 0.21% hits; OD600 absorbance (test concentration not listed);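 active = OD600 absorbance below the run mean of sample wells minus 3.6 SD, in any replicate, cut at about 0.56 in these data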;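 note: stock transfer was 300 nL into about 60 µL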
ALR H2O2 inh – human ALR oxidase inhibition via reduced H2O2 | purified ALR, DTT oxidation, H2O2 HRP-luminol luminescence | inhibition, % (no concentration beside the values) | 290,000 compounds, 3.8% hits | AID 485317;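 active = mean and each replicate at 75% or more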;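 note: stock transfer was 7.5 nL into about 7.5 µL; 0% = neutral wells and 100% = wells with inactivated enzyme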
Numbers without * were called inactive; i = inactive; . = not tested or not shown.

Sample of the layout:
SMILES	Beta2AR agonist	FGF22 binding	HNF4A DNA FP	UCH37 DUB inh	LANA-H2B inh	E coli growth	ALR H2O2 inh
CC(=O)N(/N=C1/C(=O)Nc2ccccc21)c1ccccc1	5.1	i	-1.4	.	6.0	.	-7.7
CC(C)CC(=O)NC(c1cccs1)c1ccc2cccnc2c1O (stereo unspecified)	6.8	.	2.7	-0.9	2.9	0.586	-20.3
C=CCn1c(Cc2nc3ccc(Cl)cc3[nH]2)n[nH]c1=S	2.6	.	3.3	5.4	-3.9	0.716	.

The listing, from the first entry:
SMILES	Beta2AR agonist	FGF22 binding	HNF4A DNA FP	UCH37 DUB inh	LANA-H2B inh	E coli growth	ALR H2O2 inh
CC(=O)N(/N=C1/C(=O)Nc2ccccc21)c1ccccc1	5.1	i	-1.4	.	6.0	.	-7.7
CC(C)CC(=O)NC(c1cccs1)c1ccc2cccnc2c1O (stereo unspecified)	6.8	.	2.7	-0.9	2.9	0.586	-20.3
C=CCn1c(Cc2nc3ccc(Cl)cc3[nH]2)n[nH]c1=S	2.6	.	3.3	5.4	-3.9	0.716	.
O=C(Cc1ccccc1)NCC(=O)N/N=C/c1ccc(C(=O)O)cc1	0.3	i	0.1	.	7.3	.	-0.7
CC1CCCCN1c1nc(-c2ccncc2)nc2ccccc12 (stereo unspecified)	7.9	.	1.8	2.3	1.7	0.67	4.3
CN(C(=O)Nc1ccccc1)n1cnc2ccccc2c1=O	7.7	i	-0.6	5.6	4.3	0.668	-4.0
O=C(O)c1ccc(-c2nc(-c3ccccc3)c(-c3ccccc3)[nH]2)cc1	8.2	.	-0.2	i	1.0	0.658	98.1*
CN1c2ccccc2C(O)=C(C(=S)Nc2ccccc2)S1(=O)=O	10.4	.	4.8	15.9	-3.0	0.69	48.3
COc1ccccc1NS(=O)(=O)c1cccc(C(=O)N/N=C/c2ccccc2OCC(=O)O)c1	-0.2	i	0.5	.	.	.	.
O=C(CSc1nc2ccccc2c(=O)n1CCC(=O)N1CCCCC1)NCc1ccccc1	5.9	.	2.1	2.4	5.0	0.714	2.9
COC(=O)c1sc(N2C(=O)C(=O)/C(=C(/O)c3ccc(C)cc3)C2c2ccco2)nc1C (stereo unspecified)	.	.	.	7.1	3.6	0.682	92.1*
Cc1ccc(Nc2cc(C)nc(-c3ccccc3)n2)cc1	3.7	i	1.4	-1.8	4.9	0.656	0.2
Cn1c(Nc2ccc(F)cc2)nc2ccccc21	-21.4	i	-1.6	-2.0	0.4	0.684	61.5
COc1cc(NC(=O)C2=CC(c3ccco3)=NS(=O)(=O)N2C)cc(OC)c1OC	-0.1	i	1.3	9.7	-4.4	0.668	1.9
COc1ccc(C(=O)Nc2nc(-c3cccs3)c(NC(C)=O)s2)cc1	-9.8	.	2.5	-26.3	-6.5	0.71	-9.9
COc1ccc(Cn2nc(C)n(N(C)c3ncc(C(F)(F)F)cc3Cl)c2=O)cc1	-9.1	.	-3.2	-2.3	-0.7	0.679	-0.8
O=C(Nc1cc(Cl)ccc1-n1cncn1)c1ccccc1OC(F)F	-7.4	i	-1.1	0.7	.	0.667	.
COCCOC(=O)C1=C(C)Nc2ncnn2C1c1ccc(F)cc1 (stereo unspecified)	-4.6	.	0.1	2.0	-1.4	0.655	6.6
COc1ccc(N2CCN(S(=O)(=O)CCNC(=O)C3CC3)CC2)cc1	-1.2	i	3.3	4.8	-7.2	0.629	-0.3
O=C(NCc1nc(-c2ccc(C(F)(F)F)cc2)no1)Nc1ccc(F)cc1F	-3.9	i	-0.2	5.3	0.4	0.657	.
Cc1cc(C)c2nc(-c3ccccn3)cc(C(=O)Nc3cc(C)on3)c2c1	0.1	.	0.4	-32.6	-0.3	0.829	.
O=C(NC(=O)c1ccc(C(F)(F)F)cc1)Nc1ccc(-c2cnco2)cc1	2.5	i	-0.1	2.6	-1.5	0.69	-2.4
CC(C)OC(=O)Cn1c(=O)sc2ccccc21	19.0	.	-0.3	0.1	4.3	0.708	-17.5
CC/C(C)=C1/NC(=O)NC1=O	3.9	i	3.7	1.6	.	0.643	.
O=C(Nc1cccc2ccccc12)N1CC=C(c2ccccc2)CC1	-1.1	.	-0.4	0.2	1.1	0.706	-15.5
O=C(N/N=C/c1cccc([N+](=O)[O-])c1)c1cccc2cc[nH]c12	-0.8	i	-4.7	.	2.8	.	-2.4
COc1ccc(CNS(=O)(=O)c2ccc3c(c2)N(C)CCO3)cc1	-4.8	i	3.0	1.8	3.1	0.711	14.5
COc1ccc(CC(=O)N(Cc2ccccc2)c2ccccc2)cc1S(=O)(=O)N1CCOCC1	13.7	i	-1.7	0.8	15.7*	0.639	-0.5
c1ccc(-c2nc3c4ccccc4ccn3c2CN2CCOCC2)cc1	-10.8	i	-1.9	-3.2	-1.4	0.657	.
Cc1ccc(N2C(=O)C(NC(=O)c3ccccc3F)(C(F)(F)F)C3=C2CC(C)(C)CC3=O)cc1 (stereo unspecified)	9.4	i	0.4	2.4	3.4	0.65	2.1
COc1ccc(CCC(=O)NCC(c2ccco2)N2CCc3ccccc32)cc1 (stereo unspecified)	10.4	i	0.8	3.4	-3.3	0.715	86.5*
O=C(CSc1nnc(Nc2ccccc2F)s1)NCc1ccco1	11.0	.	-12.3	0.1	.	0.745	.
COc1ccc(S(=O)(=O)N2CCOCC2)cc1C(=O)Nc1ccc2c(c1)OCO2	9.6	i	-2.5	1.6	-2.9	0.708	-0.8
CCOCCc1c(O)nc(SCC)[nH]c1=O	3.8	i	3.6	0.1	3.7	0.693	.
COc1ccc(OCc2nnc(SC(C)C(=O)Nc3nccs3)n2-c2ccccc2)cc1 (stereo unspecified)	-17.2	.	-0.8	5.1	-13.8	0.698	-5.5
O=C(c1ccc(OC2CCN(Cc3cccc(F)c3)CC2)cc1)N1CCCCC1	3.5	i	-0.9	1.5	-4.5	0.672	-2.9
Cc1ccc(C(=O)O)cc1NC(=O)C1CCN(S(=O)(=O)c2ccc3c(c2)OCCO3)CC1	-0.3	i	1.0	3.1	-2.7	0.692	.
O=C(CCCOc1ccc(Cl)cc1Cl)NNC(=O)C1CCC1	-3.4	i	2.4	3.0	-2.6	0.7	-0.5
Cc1ccc(/C(O)=C2\C(=O)C(=O)N(C)C2c2ccc(F)cc2)cc1 (stereo unspecified)	-6.5	i	0.8	11.6	-1.1	0.725	16.8
Cc1cccn2c(=O)c(C=O)c(N3CCN(C)CC3)nc12	-10.7	i	-4.0	3.2	-1.6	0.599	0.2
Cc1ccc(NC(=O)Nc2c(C)[nH]c(=O)[nH]c2=O)cc1Cl	-5.8	i	3.8	-1.1	-0.5	0.686	-11.2
O=C(Nc1ccc(Cl)cc1Cl)c1ccc(Br)o1	4.8	i	3.0	1.6	2.2	0.674	-11.7
O=C(NNC(=O)c1ccc(-n2cncn2)c([N+](=O)[O-])c1)c1cccc(Cl)c1	-0.9	i	-1.1	6.0	4.1	0.7	-10.0
Cc1nc(-c2cccnc2)sc1C(=O)Nc1ccc(F)cc1F	2.6	.	-1.1	3.3	-4.9	0.693	-15.7
Cc1nn(C)cc1/C=C/C(=O)c1ccc(O)cc1	-15.3	.	0.2	11.0	4.8	0.695	98.8*
COc1ccc2c(c1)c1nc3n(c(=O)c1n2CC(=O)Nc1ccccc1)CCS3	-8.9	i	-4.8	-191.8	4.0	0.729	.
COc1ccc(N2CCN(C(=O)CN(C3CCCCC3)S(C)(=O)=O)CC2)cc1	2.7	i	-0.1	0.0	-0.7	0.666	-0.3
O=C(Cn1ncc2c(=O)oc3ccccc3c21)NCCC1=CCCCC1	-10.4	.	0.8	0.4	1.9	0.734	-4.7
CCN(CC)CCCN=Cc1c(O)n(-c2cccc(C)c2)c(=O)c2ccccc12	-2.7	i	-6.0	5.6	-0.7	0.622	-4.5
FCCCOc1ccc(/C=N/OCc2ccc(Cl)cc2Cl)cc1	-2.9	.	0.8	.	-9.7	.	-7.4
CCOC(=O)N1CCN(C(=O)CSCC(=O)Nc2nc(-c3ccc(Cl)s3)cs2)CC1	-11.6	.	-0.8	4.8	0.6	0.703	-7.7
COc1cc(NC(=O)c2n[nH]c(=O)c3ccccc23)cc(OC)c1	-2.2	i	2.0	-8.8	-0.1	0.612	.
Cc1ccccc1-n1cc(-c2ccc(Br)cc2)nc1SCC(N)=O	-2.8	i	-1.7	.	-1.5	.	2.4
Cc1ccc(-n2nc3c(=O)n(CC(=O)NCc4cccs4)nc(C)c3c2C)cc1	-6.9	i	-0.4	1.5	1.5	0.706	-0.7
CN1CCN(c2ccc(NC(=O)CSc3ccccc3)cc2F)CC1	18.6	.	-0.4	3.2	-2.8	0.711	0.2
O=C(NC1CCCCC1)C(c1ccncc1)N(C(=O)c1ccco1)c1ccc(F)cc1 (stereo unspecified)	-0.2	i	1.0	0.8	1.1	0.671	-2.3
CCc1ccc2nc(N3C(=O)C(O)=C(C(=O)c4ccco4)C3c3cccs3)sc2c1 (stereo unspecified)	1.8	.	7.6	.	-1.7	.	9.0
Cc1cc(NCc2ccccn2)n2ncc(-c3ccccc3)c2n1	-5.1	i	1.9	-69.6	-4.4	0.655	38.6
Cc1nc(C)c(C(=O)N2CCCC(C(=O)c3ccc(Cl)cc3C)C2)s1 (stereo unspecified)	-3.5	i	-4.1	0.0	0.9	0.683	-11.5
CC(C)(C)c1ccc(OCCC(=O)NNC(=O)c2ccncc2)cc1	-11.2	i	-2.5	2.0	-1.1	0.607	-0.6
(more compounds)
SMILES	Beta2AR agonist	FGF22 binding	HNF4A DNA FP	UCH37 DUB inh	LANA-H2B inh	E coli growth	ALR H2O2 inh
CCN(CC)CC(C)OC(=O)c1ccccc1Cl (stereo unspecified)	7.0	.	-4.8	1.9	-7.0	0.665	-1.7
Cc1cc(C)c(S(=O)(=O)/N=C2/C=C(Sc3ncn[nH]3)C(=O)c3ccccc32)cc1C	48.7*	.	-4.9	.	7.1	.	-68.2
COc1ccc(S(=O)(=O)N2CCCC(C(=O)NCc3ccco3)C2)cc1Cl (stereo unspecified)	-6.0	.	3.1	0.9	-2.0	0.707	2.8
Cc1cc2ccccc2n1CCNC(=O)c1ccccc1	-2.5	.	0.4	2.5	2.1	0.744	-11.2
CC1(O)CC(c2ccc(Cl)cc2)=NN1C(=O)c1ccc(Cl)cc1 (stereo unspecified)	6.0	i	0.0	5.9	-0.8	0.662	-0.4
Cc1ccc([C@H]2C(C(=O)O)=CC[C@@H](c3ccc(C)cc3)N2S(=O)(=O)c2ccccc2C)cc1	3.3	.	-2.0	2.0	.	0.689	.
COc1cccc(NC(=O)Nc2cccn(Cc3ccc(C)cc3)c2=O)c1	-1.1	i	-4.7	.	-4.6	.	-19.8
COc1ccccc1C(=O)NC(=S)Nc1ccc2[nH]c(=O)[nH]c2c1	-4.7	i	-1.2	0.8	0.6	0.691	-2.7
Cc1ccnc(N2CCC(C(=O)NCc3ccccc3F)CC2)n1	-10.0	i	5.0	-10.8	-0.7	0.731	0.3
Cc1cc(C)c(C2=CC(=O)C[C@H](c3ccc4c(c3)OCO4)C2)c(C)c1	-4.3	i	-3.1	2.3	14.7	.	-0.2
CCOC(=O)C1CCN(C(=O)c2ccccc2Oc2ccccc2)CC1	-7.1	.	2.7	0.1	-6.2	0.696	-5.0
Cc1ccccc1N1CCN(CCCN2C(=O)CC(=C(c3ccccc3)c3ccccc3)C2=O)CC1	0.0	.	0.6	2.4	-2.2	0.735	-14.0
C=CCOn1c(C)c(C(C)=O)c2c3no[n+]([O-])c3ccc21	-0.1	.	-2.8	5.0	-0.7	0.704	-4.9
Cc1cccc(Cl)c1NC(=S)NCCc1ccccn1	1.0	i	3.2	3.0	-6.5	0.686	11.0
COc1ccc(-c2nnc(-c3cccnc3)o2)cc1OC	-8.5	.	8.1	-0.5	4.6	0.703	60.8
O=C(c1ccc(Cl)cc1)C(Cn1cncn1)C(Sc1ccccc1)c1ccccc1 (stereo unspecified)	5.2	.	-2.1	-1.3	1.0	0.809	-2.2
COc1ccc(/C=C2\CCc3ccccc3C2=O)cc1CN1CCOCC1	-6.9	i	0.0	5.0	-0.4	0.702	-8.8

This is a subset, so the mix of outcomes need not match the whole.
